Vaccinia mCherry = qHTS for Stage-Specific Inhibitors of Vaccinia Orthopoxvirus: mCherry Reporter Primary qHTS | Vaccinia virus mCherry reporter infection, fluorescence; about a quarter of the inactives have no number | Potency, µM (series often up to 36.5 µM), for inactives: at the top dose activity change, negative = inhibition, usual class: inhibitors | hit rate 0.63% among 310,000; active = well fitted inhibition curve with a large enough effect; inconclusive = small, poorly fitted or top-dose-only effect; inactive = no such curve, though single readings can be large or run the other way; tested in A549 cells; also: nearly all actives have a fitted effect of over 35% in size; inactives centre near -10
VACV Venus inh = qHTS for Stage-Specific Inhibitors of Vaccinia Orthopoxvirus: Venus Reporter Primary qHTS. Vaccinia virus Venus reporter expression, fluorescence. AID 720580, 2013. hit rate 0.46% among 330,000. Potency, µM (highest dose often 36.5 µM), for the others: at the top dose activity change, negative = inhibition, usual class: inhibitors; active means well fitted inhibition curve with a large enough effect; inconclusive means small, poorly fitted or top-dose-only effect; inactive means no such curve, though single readings can be large or run the other way; tested in A549 cells; also: nearly all actives have a fitted effect of over 30% in size; inactives centre near -10
* hit, by the source's call; i = inactive; ? = inconclusive; . = not tested or not shown; & = joins results of further samples; [ ] = dose if it differs, or a comment. % is scaled to controls: 0 for no effect and ±100 for the full control effect; potency is read from the fitted curve at half-maximal effect.

smiles	Vaccinia mCherry	VACV Venus inh
CC(C)COc1ccc(-c2nonc2NC(=O)c2ccc(F)cc2)cc1	-7.9%	-9.9%
CCc1nc2ccc(C(=O)Nc3ccc(NC(C)=O)cc3)cc2nc1CC	-0.9%	-22.6%
CN(C)c1ccc(N2CC(C)(C)C2=O)cc1	-11.0%	0.8%
C=CCN1C(=O)c2ccccc2Sc2ccc(C(=O)N3CCN(C)CC3)cc21	-3.4%	-12.1%
C[C@H]1CN([C@@H](C)CO)C(=O)c2cccc(NC(=O)C3CC3)c2O[C@H]1CN(C)Cc1ccc(-c2ccccc2)cc1	-8.4%	?
Cc1cccc(NC(=O)CN(C)S(=O)(=O)c2cnc[nH]2)c1C	-1.4%	-3.1%&4.7%
COc1cccc(N(C(=O)c2sc(C)nc2C)C(C(=O)NCC2CCCO2)c2ccccc2)c1 (stereo not given)	2.6%	-2.9%
CNNC(=O)C(C)NC(=O)c1ccc(Br)cc1 (stereo not given)	-0.7%	-5.9%
CCCCn1c(CNC(=O)C23CC4CC(CC(C4)C2)C3)nnc1SCC(=O)Nc1ccc(F)cc1	-9.9%	-23.4%
CCOc1ccccc1NC(=O)Cn1c(=O)n(CCCCC(=O)NCCCOC)c(=O)c2ccccc21	-11.3%	1.1%
CC(C)(C)c1ccc(C(=O)NCC(=O)OCC(=O)N2CCN(S(=O)(=O)c3ccc(Cl)cc3)CC2)cc1	-0.5%	-5.0%
Cc1nc2cccnc2n1C1CCN(C(=O)Nc2ccccc2)CC1	-10.6%	-5.1%
COc1ccccc1N(CC(O)Cn1ccnc1C)S(=O)(=O)c1ccccc1 (stereo not given)	?	-17.2%
O=C(NCC1CCCO1)NC12CC3CC(CC(C3)C1)C2 (stereo not given)	-8.4%	-17.8%
O=C1N=c2ccccc2=C1c1[nH]c(=S)[nH]c1O	-21.1%	-17.4%
O=C(Cn1c(=O)oc2cc(S(=O)(=O)NCc3ccccc3)ccc21)NCc1ccc(F)cc1	-19.3%	-5.3%

Compounds from the list above that have four or more nitrogen atoms, in the order listed:
smiles	Vaccinia mCherry	VACV Venus inh
CCc1nc2ccc(C(=O)Nc3ccc(NC(C)=O)cc3)cc2nc1CC	-0.9%	-22.6%
Cc1cccc(NC(=O)CN(C)S(=O)(=O)c2cnc[nH]2)c1C	-1.4%	-3.1%&4.7%
CCCCn1c(CNC(=O)C23CC4CC(CC(C4)C2)C3)nnc1SCC(=O)Nc1ccc(F)cc1	-9.9%	-23.4%
CCOc1ccccc1NC(=O)Cn1c(=O)n(CCCCC(=O)NCCCOC)c(=O)c2ccccc21	-11.3%	1.1%
Cc1nc2cccnc2n1C1CCN(C(=O)Nc2ccccc2)CC1	-10.6%	-5.1%

The listing continues.
smiles	Vaccinia mCherry	VACV Venus inh
NC(CCC(=O)O)C12CC3CC(CC(C3)C1)C2 (stereo not given)	-12.0%	-8.9%
Cc1cccc(NC(=O)CCCC(=O)OC(C)C(=O)c2ccccc2)c1 (stereo not given)	i	0.0%
Cc1ccc(Cl)cc1NC(=O)Cn1cc(C(F)(F)F)cc(Cl)c1=O	-20.4%	-23.1%
O=C(COc1ccccc1C(=O)Nc1ccccc1)Nc1cccc([N+](=O)[O-])c1	?	-29.8%
COc1cc2c(cc1OC)C1(O)C(=O)c3ccc(O)c(C(=O)O)c3OC1CO2 (stereo not given)	-14.5%	-8.8%
Cc1cc(C(=O)N2CCCC(N3CCN(c4cccc(Cl)c4)CC3)C2)n(C)n1 (stereo not given)	i	-14.1%
Cc1csc(NC(=O)C(Cc2ccccc2)n2cccc2)n1 (stereo not given)	-16.8%	-15.6%
CC(Sc1nnnn1-c1ccc(O)cc1)c1nc2ccccc2c(=O)[nH]1 (stereo not given)	6.5%	-4.8%
O=C(Cn1nnc(-c2ccccc2)n1)N/N=C/c1cc([N+](=O)[O-])ccc1O	-5.3%	5.1%
COc1ccc(NC(=O)n2nc(OC(=O)c3cccs3)cc2N)cc1	i	-7.6%
O=C(COC(=O)/C=C/c1cccc(F)c1)NCc1ccc2c(c1)OCO2	-5.2%	-8.4%
COc1cccc(CN2CCC2(C)C(=O)Nc2cccc(Oc3ccccc3)c2)c1F (stereo not given)	-11.1%	-29.6%
COC(=O)c1nc2n(n1)C(c1cc(OC)ccc1OC)C=C(c1ccc(Br)cc1)N2 (stereo not given)	-24.2%	-12.3%
CCOC(=O)CSc1ccc2nnc(-c3cccnc3)n2n1	i	-7.6%
CCn1cc(C2C3=C(CC(C)(C)CC3=O)N(c3ccccc3)C3=C2C(=O)CC(C)(C)C3)c(C)n1	-15.0%	-14.2%
Cc1c(Cl)cccc1NC(=O)CC(c1cccs1)N1Cc2ccccc2C1=O (stereo not given)	-2.0%	0.3%
Cc1cccc(N=N/C(=C\O)C(=O)c2ccc(Br)cc2)c1	-24.2%	-5.0%
O=C(CSc1nc2ccccc2[nH]1)Nc1ccc2[nH]c(=O)[nH]c2c1	i	-11.9%
CC1CN(CC(=O)N2CCN(Cc3nccn3C)CC2)Cc2cc(Cl)ccc2O1 (stereo not given)	-3.6%	-6.6%
Cc1cc(NC(=O)C2CCCC2)nc2c1c(=O)oc1ccccc12	.	-28.9%
CSCCC(NS(=O)(=O)c1cccc(C(F)(F)F)c1)C(=O)Nc1ccccc1N1CCCC1 (stereo not given)	-16.4%	-23.3%
COc1ccc(-c2nnn(CC(=O)N(CCO)C(C(=O)NC3CCCC3)c3ccncc3)n2)cc1 (stereo not given)	-9.8%	-4.3%
COc1ccc(-n2nc(C(=O)NCC(=O)Nc3cc(OC)c(OC)c(OC)c3)c3ccccc3c2=O)cc1	-15.3%	-6.1%
COc1ccc(CNC(=O)Cn2nc([N+](=O)[O-])c(Br)c2C)cc1OC	i	-2.4%
COc1ccc(CN(C)CCn2cc(C(=O)N3CCSCC3)nn2)cc1C	i	-14.0%
CCN(C(=S)NC(=O)CCc1ccccc1)c1ccccc1	-18.5%	-2.2%
O=S(=O)(c1ccc(S(=O)(=O)N2CCC(O)CC2)cc1)N1CCCC1	i	-7.2%
CCOC(=O)Cn1c(=O)oc2cc(S(=O)(=O)N3CCN(c4ccc(C(C)=O)cc4)CC3)ccc21	-2.1%	-6.3%
Cc1cc(C)c(NC(=O)CNC(=O)c2cc(C3CC3)nc3c2cnn3C(C)C)c(C)c1	-7.4%	?
CCOC(=O)c1cccc(NC(=O)CCS(=O)(=O)c2ccc(Br)s2)c1	-11.4%&-12.7%	6.2%&-9.0%
COc1cc(/C=C/c2nc3cc(Cl)ccc3c(=O)n2-c2ccc(C)cc2C)cc(OC)c1OC	-9.4%	-5.9%
Cc1cccc(NC(=O)c2oc3ccccc3c2NC(=O)Cc2coc3c(C)c(C)ccc23)c1	-26.3%	-23.0%

(cont.)
molecule,Vaccinia mCherry,VACV Venus inh
Cc1cc(C)c(S(=O)(=O)N2CCCC2)c(C)c1,i,-6.0%
CCc1ccc(NC(=S)N(CCN2CCCCC2)Cc2ccco2)cc1,-19.5%,-12.3%
COc1cccc(NC(=O)c2ccccc2N2C(=O)C3C4C=CC(C5CC45)C3C2=O)c1 (stereo not given),i[7.34 µM],0.0%[7.34 µM]
CC(C)c1ccc(NC(=O)COC(=O)C2=COCCO2)cc1,.,-16.2%
Cc1ccc(S(=O)(=O)N2C3CCCCC3O[C@H]2CC(=O)c2cccs2)cc1 (stereo not given in full),?,-20.2%
CCOC(=O)c1noc2ncnc(N3CCN(c4cccc(C(F)(F)F)c4)CC3)c12,i,-0.1%
CNC(=O)O/N=C(\C)Cc1nnn(-c2cc(C)on2)n1,-22.0%,-20.0%
O=C(c1ccccc1)[C@@H]1[C@@H](C(=O)c2ccc(F)cc2)[C@@]2(C(=O)Nc3ccccc32)[C@H]2c3ccccc3C=CN12,-13.4%,2.6%
O=C(O)/C=C/C(=O)Nc1ccc2nccnc2c1,4.4%,5.6%
O=C(c1ccc([N+](=O)[O-])cc1)N(Cc1ccc(Cl)cc1)N1C(=O)CCCC1=O,i,-6.6%
COc1ccc(CN(C(=S)Nc2ccccc2)C2CC(=O)N(c3ccc(F)cc3)C2=O)cc1 (stereo not given),.,-26.6%
COc1ccc(NC(=O)c2ccc(Cl)nc2)cc1S(=O)(=O)N1CCCCC1,-11.8%,-22.4%
c1ccc2c(c1)-c1nc3ccccc3cc1C2N1CCCCC1 (stereo not given),-3.9%,-0.3%
O=C(Nc1ccccc1)Nc1nc(-c2ccc(F)c(F)c2)cs1,-11.9%,-15.0%
COc1cc(/C=C/CNC[C@H]2O[C@@H](n3cnc(C(N)=O)n3)[C@H](O)[C@@H]2O)ccc1O,-6.0%,-6.0%
COc1ccc2c(c1)C(NC(C)=O)C(=O)N2C (stereo not given),.,-13.7%
COc1ccc(CNC(=O)c2ccc(-c3cccnc3)c3ccoc23)cc1OC,13.7%,-11.8%
Cc1ccc2nc(NC(=O)c3ccc(S(=O)(=O)N4CCC(C)CC4)cc3)sc2c1,-6.2%,0.4%
COC(=O)[C@H](CO)NS(=O)(=O)c1ccc(C)cc1,i,-7.4%
CC1CCN(S(=O)(=O)c2ccc(C(=O)Nc3nnc(-c4ccccn4)o3)cc2)CC1,i,-16.3%
CN1C[C@@H]2[C@@H]3C(=O)N(Cc4ccccc4)C(=O)[C@@H]3[C@](Cc3ccccc3)(C1=O)N2C(=O)c1ccccc1,?,?
COc1cc(C2C(C#N)=C(N)N(c3cccnc3)C3=C2C(=O)CCC3)ccc1O (stereo not given),-8.5%,4.3%
COc1cc(NC(=O)CSc2nccc(=O)[nH]2)c(C)cc1[N+](=O)[O-],7.0%,4.2%
C/C(=N\NC(=S)NC1CCCCC1)c1cccc(C(F)(F)F)c1,i[7.34 µM],0.0%[7.34 µM]
O=C(Nc1ccccc1-c1nc2ccccc2s1)c1ccc(F)cc1,-18.0%,-20.4%
COc1ccc(CN(C)C(=O)CCN2C(=O)c3ccccc3C2=O)c(OC)c1OC,-13.1%,4.7%
O=C(CSc1ccccn1)C12CC3CC(CC(C3)C1)C2,i,-1.7%
COC(=O)c1ccc2nc(C3CCCCC3)c(Cc3ccccc3C(F)(F)F)n2c1,37.8%[activator],8.0%
Cc1ccc(OCC(=O)N/N=C/c2ccco2)cc1,i,-3.3%
Cc1ccc(S(=O)(=O)c2c(C)nn(-c3ccccc3)c2OC(=O)c2ccco2)cc1,i,-8.0%
CN(C)/C=C(\C#N)C(=O)N/N=C(\CC(=O)C(F)(F)F)c1ccco1,-12.1%,-7.6%
CCOc1ccc(NC(=O)c2cccc3c2C(=O)N(Cc2cccnc2)C3)cc1,i,-11.0%
COc1cccc(CNC(=O)N2CCN(c3ccccc3C)CC2)c1,-12.7%,-15.4%
CCN(CC(=O)Nc1ccc(NC(C)=O)cc1)Cc1c(O)ccc2cc(Br)ccc12,-38.0%,-1.4%
COc1ccc(-c2cc(=O)c3ccccc3o2)cc1,i,-0.1%&-4.5%
COc1cccc(CN2CC=C(c3ccc(F)cc3)CC2)c1,i,1.1%
CC1CN(C(=O)COC(=O)c2cc(Cl)ccc2Cl)CC(C)O1 (stereo not given),-14.6%,-14.5%
COc1ccc(CN(C(=O)CSc2nnc(-c3c[nH]c4ccccc34)o2)c2ccc(F)cc2)cc1OC,10µM*,10µM*
COc1cccc2cc(-c3nc4ccccc4o3)c(=O)oc12,-13.8%,-18.4%
O=C(NCC(=O)N1CCN(c2ccccn2)CC1)c1ccc(Br)o1,-9.4%,-15.6%
NS(=O)(=O)c1ccc(CCNC(=O)CNS(=O)(=O)c2cccc(Br)c2)cc1,-0.2%,-6.7%
CCOc1ccc(C2C(=O)N(C3CCCCC3)CC(=O)N2Cc2ccccc2OC)cc1OC (stereo not given),-1.9%,-2.5%
COc1ccc(NC(=O)C2CCCN(S(=O)(=O)c3ccc(Br)s3)C2)cc1 (stereo not given),-23.3%,-12.7%
COc1ccc(C2C(C#N)=C(SCC(=O)Nc3ccc(C)cc3)NC3=C2C(=O)CC(C)(C)C3)cc1 (stereo not given),-10.4%,-13.5%
Cc1ccc(-n2nc(C(=O)N3CCN(c4cc(C)ccc4C)CC3)c3c4ccccc4n(C)c3c2=O)cc1,i,-7.5%
CCn1c(SCC(=O)Nc2cc(C)on2)nc2c([nH]c3ccccc32)c1=O,-13.6%,-11.7%
O=c1[nH]n(Cc2ccccc2)c2ccccc12,-0.1%,7.7%
NS(=O)(=O)c1ccc(CCNC(=O)CN2CCN(c3ccccc3F)CC2)cc1,i,-7.5%
CCc1nc2ccc(C(=O)N(C)CCN(C)C)cn2c1N(CC)C(=O)NCCc1ccccc1,3.2%,5.1%
Cc1cccn2cc(CNC(=O)c3ccco3)nc12,-9.0%[1.46 µM],-2.4%
CCN(CC1COc2ccccc2O1)C(=O)CN1C(=O)NC(C)(c2ccc(C)cc2)C1=O (stereo not given),-3.8%,-24.9%
Cc1cccc(Oc2ccc(NC(=O)c3ccccc3C(=O)O)cc2)c1C,?,-15.6%
Cc1cccc(C(=O)Nc2cccnc2Cl)c1,i,-11.7%
COc1ccc(-c2nc3sc(CCNC(=O)Cc4ccc(F)cc4)c(C)n3n2)cc1,i,-14.8%
C=CCON1C(=O)c2ccccc2C1=O,.,-18.5%
